# Compound activity: PubChem, several laboratories
# Insulin prom inh – inhibitors of insulin promoter-driven GFP, primary screen, imaging, TRM-6 cells (human fetal islet line), eGFP reporter, cell count; actives 0.9% (n = 130,000); reporter expression induced with tamoxifen; AID 1273, 2008; inhibition, % at 2 µM;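 active means inhibition above the mean plus 3 SD, with well images judged a real hit on visual review, cut at about 60% in these data, passing the limit was not always enough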
# GALR2 agonist – GALR2 receptor agonists, primary screen, cell-based; Galanin receptor type 2 (Homo sapiens), O43603; GALR2-expressing cells, agonist activation read-out; activation, %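 (tested at 5 µM)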; actives 0.48% (n = 140,000); AID 803, 2007;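 active means above mean plus 3 SD of all compounds, about 5% in these data, not always enough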;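 further: 0% = vehicle buffer wells and 100% = reference agonist at full effect; tested in CHO reporter cells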
# Target sequence (O43603 whole entry, looked up): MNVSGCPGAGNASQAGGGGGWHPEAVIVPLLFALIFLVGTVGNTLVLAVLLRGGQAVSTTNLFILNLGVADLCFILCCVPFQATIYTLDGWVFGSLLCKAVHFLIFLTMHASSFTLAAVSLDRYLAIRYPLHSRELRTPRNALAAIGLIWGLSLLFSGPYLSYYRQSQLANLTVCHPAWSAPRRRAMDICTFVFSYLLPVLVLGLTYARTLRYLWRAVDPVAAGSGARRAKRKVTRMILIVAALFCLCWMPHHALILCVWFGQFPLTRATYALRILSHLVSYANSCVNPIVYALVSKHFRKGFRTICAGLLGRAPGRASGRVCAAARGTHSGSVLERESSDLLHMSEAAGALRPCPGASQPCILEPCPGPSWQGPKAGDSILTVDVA
# RGS16-Gao HTS – modulators of RGS16 binding to Galphao, primary screen, biochemical, human proteins, multiplexed bead flow cytometry; Regulator of G-protein signaling 16 (Homo sapiens) + Guanine nucleotide-binding protein …; binding response (% of control), % at 10 µM; actives 0.38% (n = 220,000); bead-based flow cytometry RGS16-Galphao binding, fluorescence; actives lie on both sides;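 active means below 25% or above 175%, edge rows of some plates excepted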;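 further: Galphao activated by GDP with aluminum fluoride before binding; 100% = wells without compound and 0% = beads without RGS; some results beyond the cut were filed as inactive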
# Target sequence (O15492 whole entry, looked up): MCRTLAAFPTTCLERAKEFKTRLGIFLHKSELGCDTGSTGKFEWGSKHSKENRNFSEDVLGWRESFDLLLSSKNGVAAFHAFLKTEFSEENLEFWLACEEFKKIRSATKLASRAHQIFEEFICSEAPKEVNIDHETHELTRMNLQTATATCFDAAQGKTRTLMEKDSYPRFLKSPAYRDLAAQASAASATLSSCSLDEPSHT
# Target sequence (P09471 whole entry, looked up): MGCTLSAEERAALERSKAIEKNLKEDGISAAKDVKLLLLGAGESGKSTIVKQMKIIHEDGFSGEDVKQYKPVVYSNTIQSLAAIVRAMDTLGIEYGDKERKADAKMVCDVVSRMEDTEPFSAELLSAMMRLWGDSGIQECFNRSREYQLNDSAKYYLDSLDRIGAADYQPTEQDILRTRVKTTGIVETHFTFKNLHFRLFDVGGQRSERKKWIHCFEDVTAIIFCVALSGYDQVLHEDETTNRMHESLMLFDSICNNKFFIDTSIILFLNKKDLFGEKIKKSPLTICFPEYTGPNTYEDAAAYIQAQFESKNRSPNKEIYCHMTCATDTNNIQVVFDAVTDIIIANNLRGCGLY
# PKD1 kinase inh – inhibitors of human PKD1 kinase, biochemical, fluorescence polarization. Serine/threonine-protein kinase D1 (Homo sapiens), Q15139. PKD1 kinase fluorescence polarization assay. inhibition, %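 (about 10 µM by stock and volumes)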. actives 0.056% (n = 200,000). AID 797, 2007;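 active means inhibition of 50% or more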;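 further: controls were vehicle for no effect and a reference inhibitor for full effect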
# HSV augment – enhancers of HSV replication in host cells, fold increase, host cell viability. actives 0.005% (n = 220,000). HSV replication augmentation in cells. maximum fold increase;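 active means peak rise of 1.5-fold or more in the series; tested in PC3 cells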;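 further: first round at 10 µM; read as green reporter fluorescence; hits show the peak of a series up to 25 µM; 1 = signal of infected wells without compound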
# Insulin prom inh cell count – also measured in Insulin prom inh; calls as there; normalized cell count, %; measured here: cell count, toxicity; reference of the scale not given here;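 cells exposed to compound for 48 h; stained nuclei by imaging scaled within each plate; lower means fewer cells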
# HSV augment primary fold – further read-out of HSV augment, marked with its call; fold increase; compound at 10 µM; measured here: primary screen fold increase 10 uM; tested in PC3 cells;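 GFP signal in the first replicate; 1 = infected wells without compound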
# The depositor's hits bear a star; i = inactive; · = no result given.
SMILES,Insulin prom inh,Insulin prom inh cell count,GALR2 agonist,RGS16-Gao HTS,PKD1 kinase inh,HSV augment,HSV augment primary fold
COC(=O)c1ccc(NCC(=O)c2ccccc2)cc1,21,65,-2.2,82,4,i,1
COCCN1C(=O)c2oc3cc(C)c(C)cc3c(=O)c2C1c1ccc(O)cc1 (stereo not given),27,49,0.1,·,-1,i,0.76
CC1CCN(C(C(=O)NC2CCCCC2)c2cc3c(cc2[N+](=O)[O-])OCO3)CC1 (stereo not given),50,113,-1.1,102,1,i,1
Cc1cc(C(F)(F)F)nc(SCC(=O)Nc2cc(C)on2)n1,-21,74,-1.7,82,8,i,0.92
CC(=O)c1ccc(N2CCN(C(=S)NCc3ccco3)CC2)cc1,-15,101,·,100,2,i,1.1
S=c1[nH]nc(COc2ccccc2)n1-c1ccccc1,·,·,·,99,3,i,1
COc1ccc2oc(C(=O)NN3C(C)CCCC3C)c(C)c2c1 (stereo not given),·,·,·,105,2,i,0.98
O=C(c1ccc2c3c(cccc13)CC2)C1CCCN(C(=O)c2ccc(=O)[nH]c2)C1 (stereo not given),·,·,·,100,0,i,1
O=C(Nc1nc2ccc([N+](=O)[O-])cc2s1)c1ccc(S(=O)(=O)N2CCCc3ccccc32)cc1,28,95,·,100,-3,i,1.2
C/C(N)=C(/C#N)C(=O)CSc1nc2scc(-c3ccc(F)cc3)c2c(=O)n1C,29,49,·,101,-4,·,·
O=C(Nc1ccc(Br)cc1)c1ccc(N2C(=O)C3CC=CCC3C2=O)cc1 (stereo not given),28,149,-1.1,89,-20,i,0.81
CCn1nnc(NC(=O)Cc2ccc(Cl)cc2)n1,·,·,·,105,-11,i,0.98
CN1C(=O)SC(Nc2ccccc2C(=O)O)C1=O (stereo not given),33,84,-2.0,100,-11,i,0.83
COC(=O)c1c(NC(C)=O)sc(Cc2ccccc2)c1C,0,78,1.0,99,-3,i,1.1
CCSc1nc(=S)n(CC)c(C)c1C(C)=O,-60,115,-2.6,101,0,i,1
CCOC1(c2ccccc2)CC1C(=O)N/N=C/c1cccc([N+](=O)[O-])c1 (stereo not given),·,·,·,86,·,i,0.9
CCCCCOC(=O)C1=C(C)N(C)C(=O)NC1c1cc(Br)c(O)c(OC)c1 (stereo not given),38,104,-1.6,104,-3,i,0.98
Cc1cc(-n2c(C)cc(C(=O)CSc3nnc4sc5ccccc5n34)c2C)no1,6,68,-2.8,110,-6,i,1
COc1ccc(C(=O)OCC(=O)Nc2sccc2C(N)=O)cc1OC,·,·,·,103,·,i,0.88
CCCOC(=O)C(=O)NNc1ccccc1,0,128,·,105,0,i,1.2
CSCCC(NS(=O)(=O)c1ccccc1F)C(=O)NC(C)c1ccccc1 (stereo not given),-45,119,·,105,0,i,1.1
Cc1c(NC(=O)c2cnn3c(C(F)(F)F)cc(-c4ccco4)nc23)c(=O)n(-c2ccccc2)n1C,13,83,-1.7,109,-11,i,1
COc1cccc(OC)c1C(=O)Nc1cccc(-c2ccc3nncn3n2)c1,-33,102,·,100,-11,i,0.87
COc1cccc(NS(=O)(=O)c2ccc(OC)c(OC)c2)c1,·,·,-1.4,101,-3,i,0.94
O=C(NNC1CC(=O)N(c2ccc(Br)cc2)C1=O)c1ccccn1 (stereo not given),-14,58,·,92,2,i,0.86

# Ordered by value in PKD1 kinase inh (falling): three of the compounds above.
compound | PKD1 kinase inh
COC(=O)c1ccc(NCC(=O)c2ccccc2)cc1 | 4
CCSc1nc(=S)n(CC)c(C)c1C(C)=O | 0
CCCCCOC(=O)C1=C(C)N(C)C(=O)NC1c1cc(Br)c(O)c(OC)c1 (stereo not given) | -3

# As a working copy, some entries already given.
SMILES,Insulin prom inh,Insulin prom inh cell count,GALR2 agonist,RGS16-Gao HTS,PKD1 kinase inh,HSV augment,HSV augment primary fold
COC(=O)c1ccc(NCC(=O)c2ccccc2)cc1,21,65,-2.2,82,4,i,1
COCCN1C(=O)c2oc3cc(C)c(C)cc3c(=O)c2C1c1ccc(O)cc1 (stereo not given),27,49,0.1,·,-1,i,0.76
CC1CCN(C(C(=O)NC2CCCCC2)c2cc3c(cc2[N+](=O)[O-])OCO3)CC1 (stereo not given),50,113,-1.1,102,1,i,1
Cc1cc(C(F)(F)F)nc(SCC(=O)Nc2cc(C)on2)n1,-21,74,-1.7,82,8,i,0.92
CC(=O)c1ccc(N2CCN(C(=S)NCc3ccco3)CC2)cc1,-15,101,·,100,2,i,1.1
S=c1[nH]nc(COc2ccccc2)n1-c1ccccc1,·,·,·,99,3,i,1
COc1ccc2oc(C(=O)NN3C(C)CCCC3C)c(C)c2c1 (stereo not given),·,·,·,105,2,i,0.98
O=C(c1ccc2c3c(cccc13)CC2)C1CCCN(C(=O)c2ccc(=O)[nH]c2)C1 (stereo not given),·,·,·,100,0,i,1
O=C(Nc1nc2ccc([N+](=O)[O-])cc2s1)c1ccc(S(=O)(=O)N2CCCc3ccccc32)cc1,28,95,·,100,-3,i,1.2
C/C(N)=C(/C#N)C(=O)CSc1nc2scc(-c3ccc(F)cc3)c2c(=O)n1C,29,49,·,101,-4,·,·
O=C(Nc1ccc(Br)cc1)c1ccc(N2C(=O)C3CC=CCC3C2=O)cc1 (stereo not given),28,149,-1.1,89,-20,i,0.81
CCn1nnc(NC(=O)Cc2ccc(Cl)cc2)n1,·,·,·,105,-11,i,0.98
CN1C(=O)SC(Nc2ccccc2C(=O)O)C1=O (stereo not given),33,84,-2.0,100,-11,i,0.83
COC(=O)c1c(NC(C)=O)sc(Cc2ccccc2)c1C,0,78,1.0,99,-3,i,1.1
CCSc1nc(=S)n(CC)c(C)c1C(C)=O,-60,115,-2.6,101,0,i,1
CCOC1(c2ccccc2)CC1C(=O)N/N=C/c1cccc([N+](=O)[O-])c1 (stereo not given),·,·,·,86,·,i,0.9
CCCCCOC(=O)C1=C(C)N(C)C(=O)NC1c1cc(Br)c(O)c(OC)c1 (stereo not given),38,104,-1.6,104,-3,i,0.98
Cc1cc(-n2c(C)cc(C(=O)CSc3nnc4sc5ccccc5n34)c2C)no1,6,68,-2.8,110,-6,i,1
COc1ccc(C(=O)OCC(=O)Nc2sccc2C(N)=O)cc1OC,·,·,·,103,·,i,0.88

# (further entries)
SMILES,Insulin prom inh,Insulin prom inh cell count,GALR2 agonist,RGS16-Gao HTS,PKD1 kinase inh,HSV augment,HSV augment primary fold
COC(=O)c1c(C(=O)OC)c(-c2ccccc2)n2c1CS(=O)(=O)C2,-10,106,-1.7,100,-12,i,1
O=[N+]([O-])c1cccc(C(=S)N2CCCC2)c1,·,·,·,55,11,i,0.89
Cc1ccccc1NC(=O)c1cnc(Nc2nc3ccccc3s2)nc1C,-17,143,-1.4,108,-10,i,0.98
COC(=O)c1ccc(NC(=O)c2ccccc2CC[N+](=O)[O-])cc1,31,126,·,95,-2,·,·
Cc1ccccc1C(=O)N1CCN(c2ccc([N+](=O)[O-])c(NCc3cccnc3)c2)CC1,0,86,-0.1,116,3,i,1.1
Cc1cc(Oc2ccccc2)nc(-c2ccccc2)n1,-9,120,-0.8,104,-2,i,1
NS(=O)(=O)c1ccc(NCc2ccccc2OCc2ccccc2F)cc1,·,·,-2.2,101,14,i,0.89
O=C(CSc1ncn[nH]1)Nc1ccc(Cl)c(Cl)c1,-45,122,-4.5,79,-8,i,0.95
Cc1cc(Cl)nc(Cl)c1C(=O)N1CCOCC1,·,·,·,102,-5,i,0.96
CCN(C(=O)COc1ccc(C)nc1[N+](=O)[O-])C1CCS(=O)(=O)C1 (stereo not given),22,118,-0.1,110,-12,i,0.95
Cn1c(=O)[nH]c(=O)c2c1nc(CN1CCOCC1)n2CCCO,45,121,-1.1,97,-6,i,0.98
NC1=NC(=O)C(Cc2ccccc2)S1 (stereo not given),42,112,·,102,-3,i,0.99
COC(=O)c1cc(NC(=O)c2ccccc2)c(=O)oc1C,·,·,·,103,0,i,0.91
Cn1c(SCc2nc3ccccc3s2)nnc1-c1ccc2c(c1)OCO2,-317,15,-1.7,96,-1,i,1
COc1ccc(C2CCCN2C(=S)Nc2cccc(C)c2C)cc1OC (stereo not given),·,·,·,100,0,i,0.88
CSc1ccc(S(=O)(=O)NCCSc2ccccn2)cc1,·,·,-2.1,103,4,i,0.81
O=C(CN(c1ccc(Cl)cc1)S(=O)(=O)c1ccc(Cl)c([N+](=O)[O-])c1)NCCc1ccc(F)cc1,-50,107,-0.6,74,-2,i,0.71
CCN(CC)S(=O)(=O)c1ccc(OC)c(NC(=S)Nc2cc(C)ccc2C)c1,7,80,-1.7,159,-7,i,1.1
Cc1ccc2nc(-c3ccc(Br)o3)oc(=O)c2c1,-25,67,-0.3,98,0,i,0.94
CCOC(=O)Cn1c(N)c(C(=O)OC)sc1=S,12,105,-3.0,102,20,i,1.1
Cn1c(=NC(=O)C2CCCCC2)sc2cc([N+](=O)[O-])ccc21,3,74,·,100,1,i,1.1
Cc1ccc(Oc2ncccc2C(=O)NC2CCSC2=O)cc1 (stereo not given),23,88,·,105,-6,i,1
COCCCNc1ncnc2nc[nH]c12,·,·,-2.1,78,-2,i,1.1
O=C(Nc1nnc(-c2ccco2)o1)C1CC1,-17,129,·,101,1,i,0.94
NC(N)=NS(=O)(=O)c1ccc(NC(=S)NC(=O)/C=C/c2cccs2)cc1,·,·,·,100,4,i,0.88

# A few values from the results shown.
# Reading for Cc1cc(Cl)nc(Cl)c1C(=O)N1CCOCC1 under PKD1 kinase inh: -5
# Reading for COC(=O)c1c(C(=O)OC)c(-c2ccccc2)n2c1CS(=O)(=O)C2 under Insulin prom inh: -10

# Following part
SMILES,Insulin prom inh,Insulin prom inh cell count,GALR2 agonist,RGS16-Gao HTS,PKD1 kinase inh,HSV augment,HSV augment primary fold
O=C(c1ccc(F)cc1)N1CCCCC(Sc2nnnn2-c2ccccc2)C1=O (stereo not given),17,120,-2.9,110,-9,i,0.95
O=C(COC(=O)/C=C/c1ccc([N+](=O)[O-])cc1)NCc1ccccc1,7,99,-1.3,109,5,i,1.1
CC1=NN(C(N)=S)C(=O)C1N=Nc1ccccc1C (stereo not given),56,123,-0.7,101,-4,i,1.1
C=CCOc1ccc(CNc2ccc(NC(=O)CC(C)C)cc2)cc1OC,7,114,-0.1,110,1,i,0.92
CCOC(=O)CCC(NC(=O)CCCC(=O)NC(CCC(=O)OCC)C(=O)OCC)C(=O)OCC (stereo not given),-14,115,-0.3,99,3,i,0.97
Clc1cccc(N2CCN(c3nnnn3-c3ccccc3)CC2)c1,-7,156,·,109,-3,i,0.96
CSc1ccccc1NC(=O)c1ccco1,·,·,-0.7,103,6,i,0.86
CCOc1cc2[nH]c(=O)n(CCCN3CCN(c4ccc(OC)cc4)CC3)c(=O)c2cc1OCC,·,·,·,90,-3,i,0.93
O=C(NCCOc1ccccc1F)c1ccccc1SCc1ccc(F)cc1,-55,123,-0.8,105,-8,i,0.88
COc1ccc(NC(=S)NC2CCCCCC2)c(OC)c1,22,83,-0.5,22*,-6,i,1.1
CCSc1nnc(-c2ccc(S(=O)(=O)N3CCCC3)cc2)n1C,0,114,-0.1,81,-13,i,0.89
C=CCOc1ccccc1CNc1ccccc1C,13,112,-1.2,102,1,i,1.1
c1ccc2c(c1)sc1nnnn12,42,121,-0.4,96,-3,·,·
COC(=O)NNC(=S)Nc1ccc(Br)cc1,·,·,·,103,4,i,1
COc1ccccc1CC(=O)Nc1ccc(-c2noc(COc3ccc(Cl)c(C)c3)n2)cc1,9,92,-1.8,101,-10,i,0.7
Nc1n[nH]c2cccc(Cl)c12,·,·,·,97,·,i,0.87
COc1ccccc1/C=C\C(=O)NCC(=O)N/N=C/c1ccc(O)cc1O,·,·,·,92,·,i,1.1
Cc1cc(C(=O)NC2CCCCC2)c(C)n1-c1ccc(F)cc1,31,180,-2.2,106,1,i,0.64
COc1ccc(CNC(=O)CC2C(=O)NCCN2CC(C)(C)C)c(OC)c1 (stereo not given),-39,135,·,113,-13,i,0.96
Cc1ccc(S(=O)(=O)CCNC(=O)Cc2ccccc2)cc1,·,·,·,102,-3,i,0.95
CCn1c(O)c(N=NC(=O)C2C(=O)NCC2c2ccccc2)c2ccccc21 (stereo not given),·,·,0.5,99,3,i,0.89

# Not a hit list (roughly 1.3% active in at least one column).
